Screens (PubChem BioAssay)
KCNQ2 inh – KCNQ2 channel blockers in CHO-K1 cells – cell-based, FluxOR thallium flux, B-score, primary screen (AID 2156); 20 min; active compounds read low; only compounds with negative scores are shown here; some inactives read as strong as hits; 310,000 tested, 1.1% active; O88943; B-score at 10 µM;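 active = fluorescence ratio B-score at most minus 3 library SDs, with starting brightness B-score within 2 library SDs, cut at about -5.5 in these data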
Target sequence (O88943 whole entry, looked up): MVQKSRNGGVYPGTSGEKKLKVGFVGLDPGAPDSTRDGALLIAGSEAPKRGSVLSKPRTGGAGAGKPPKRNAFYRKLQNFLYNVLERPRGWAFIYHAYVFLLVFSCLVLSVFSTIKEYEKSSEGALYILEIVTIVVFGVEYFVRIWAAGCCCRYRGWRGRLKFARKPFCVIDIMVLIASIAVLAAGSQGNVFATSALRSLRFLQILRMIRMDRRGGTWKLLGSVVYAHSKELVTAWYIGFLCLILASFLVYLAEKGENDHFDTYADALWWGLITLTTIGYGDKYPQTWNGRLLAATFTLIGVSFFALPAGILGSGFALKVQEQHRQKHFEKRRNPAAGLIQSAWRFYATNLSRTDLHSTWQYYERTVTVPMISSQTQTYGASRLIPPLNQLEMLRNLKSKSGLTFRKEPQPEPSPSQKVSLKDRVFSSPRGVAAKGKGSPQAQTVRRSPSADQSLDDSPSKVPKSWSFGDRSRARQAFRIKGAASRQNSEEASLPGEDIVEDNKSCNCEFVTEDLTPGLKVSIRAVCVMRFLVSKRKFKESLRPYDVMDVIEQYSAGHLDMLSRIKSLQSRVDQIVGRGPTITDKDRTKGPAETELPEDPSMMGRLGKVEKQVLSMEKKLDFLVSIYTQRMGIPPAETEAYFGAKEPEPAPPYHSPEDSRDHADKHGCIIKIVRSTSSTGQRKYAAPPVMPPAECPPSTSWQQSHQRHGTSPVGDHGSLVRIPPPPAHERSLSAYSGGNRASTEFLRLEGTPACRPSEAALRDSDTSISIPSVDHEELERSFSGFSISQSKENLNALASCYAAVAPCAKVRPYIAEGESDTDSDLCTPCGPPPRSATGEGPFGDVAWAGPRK
KCNQ2 inh baseline – second read-out of KCNQ2 inh, no call of its own (marks repeat the call); B-score; measured here: initial fluorescence intensity artifact check;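 brightness before thallium and not channel activity; 0 = typical well and far values either way flag optical interference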
Active calls of the source: *; i = inactive. Some of the compounds tested; the hit share may differ from the screen's.

Every second line gives: KCNQ2 inh, KCNQ2 inh baseline
O=C(c1cccn2c(=O)c3cc(Cl)ccc3nc12)N1CCN(Cc2ccc3c(c2)OCO3)CC1
→ i, -0.34
O=C(COc1coc(CN2CCc3ccccc3C2)cc1=O)Nc1ccc(F)cc1F
→ i, 0.44
Cc1cc(C)n(CC(=O)c2ccc(Br)cc2)c(=O)c1C#N
→ i, 1.3
COc1ccc(C(C)=O)cc1CSc1nnc(-c2ccc(Cl)cc2)n1-c1ccccc1
→ i, -0.55
C/C(=N/NS(=O)(=O)c1ccc(C)cc1)c1c[nH]c2ccccc12
→ i, -0.96
COc1cccc(CNc2cccc3cccnc23)c1O
→ i, 0.78
CCCC(=O)Nc1ccc2c(c1)nc1n2CCN(CCOC)C1
→ i, 0.66
COc1cccc(CNC(=O)C(C)n2nc(C)n3c(cc4occc43)c2=O)c1 (configuration not stated)
→ i, -0.7
CCC(Sc1nc2ccsc2c(=O)n1-c1ccc(Cl)c(C)c1)C(=O)NCc1ccco1 (configuration not stated)
→ i, 0.56
CC(C)N(C(=O)CN1CCC(c2nc3ccccc3[nH]2)CC1)C(C)C
→ i, 1.3
CCOC(OCC)P(=O)(C(C)C)C(C)C
→ i, 1.2
COc1ccc(N2C(=O)C(Cl)=C(N3CCOCC3)C2=O)cc1
→ i, -1.4
COc1ccc(-c2[nH]ncc2/C=N/NC(=O)c2cccc([N+](=O)[O-])c2)cc1OC
→ i, -2.2
COc1ccc(C(=O)C2CCCN(Cc3cc(C)c(O)c(C)c3)C2)c(OC)c1 (configuration not stated)
→ i, -0.78
CCOC(=O)c1cc(COc2cc(Cl)cc(Cl)c2)on1
→ i, -0.26
CC1CCN(C(=O)CSc2nnc(-c3ccncc3)n2C)CC1
→ i, -0.62
CCc1ccc(OCC(=O)NNC(=O)c2c(CC)noc2C)cc1
→ i, -0.9
CN(Cc1ccc(Cl)cc1Cl)C(=O)CN1C(=O)NC2(CCCC2)C1=O
→ i, 0.88
CN(C)CCNC(=O)CNC(=S)N(Cc1ccccc1)Cc1cccnc1
→ i, -0.09
CN(C)CCCNCC(=O)c1c(-c2ccccc2)n(C)c2ccccc12
→ i, -1.8
CCc1ccc(C(=O)N/N=C(\C)c2cccnc2)s1
→ i, -0.73
Cc1cc[n+](-c2nc3ccccc3nc2C(=C=[N-])C#N)cc1
→ i, -0.67
C/C(=N/Nc1nc(C)c(C)s1)c1cccc([N+](=O)[O-])c1
→ i, -0.94
O=C1CCN(CCc2ccccc2)CCN1[C@H](CSc1ccccc1)Cc1ccccc1
→ i, 0.82
CSc1ccccc1NC(=O)CN1CCN(c2ccccn2)CC1
→ i, 2.3
O=C(O)c1ccc(Nc2c3ccccc3nc3ccccc23)cc1
→ i, -0.19
Cn1c(=O)c2c(nc(N3CCN(Cc4ccccc4)CC3)n2CCCc2ccccc2)n(C)c1=O
→ i, 0.22
CCCC(=O)Nc1ccc(-c2csc(-c3cccnc3)n2)cc1
→ i, -0.04
CCC1CCCCN1C(=O)CSc1nnc(-c2cccc(Cl)c2)o1 (configuration not stated)
→ i, 0.3
O=C1Nc2ccccc2/C1=N\N=C\c1ccc(O)c(O)c1
→ i, -0.22
CCOC(=O)c1cc2sccc2n1CC(=O)Nc1ccc(OC)c(OC)c1
→ i, -0.36
Cc1ccc(NC(=O)C2CCN(S(C)(=O)=O)CC2)cc1C
→ i, 1.2
CN(CCNS(=O)(=O)c1ccc2c(c1)oc(=O)n2C)Cc1ccccc1
→ i, 0.72
OCC1(Cc2cccc(F)c2)CCN(Cc2ccc3cccc(F)c3n2)CC1
→ i, -1.2
CCC(=O)NC(c1ccccc1)c1c(OC(C)=O)ccc2ccccc12 (configuration not stated)
→ i, 1.9
Cc1ccccc1OCCCn1c(=O)sc2ccccc21
→ i, 2.3
Cn1nnnc1NCc1cccc(Cl)c1Cl
→ i, 0.01
O=C(C1CCCN(Cc2ccc(F)cc2)C1)N1CCCCC1 (configuration not stated)
→ i, 1.2
CCOc1ccc(Br)cc1S(=O)(=O)Nc1ccc(C(=O)Nc2ccccc2OC)cc1
→ i, -0.56
Cc1c(NC(=O)C(C)OC(=O)c2cccs2)c(=O)n(-c2ccccc2)n1C (configuration not stated)
→ i, -0.04
COc1ccccc1-c1noc(-c2ccncc2)n1
→ i, 1
COc1ccc(/C=C/C(=O)C(C)(C)C)cc1OC
→ i, 0.93
Cn1cc(/C=C/c2cc[n+](C)cc2)c2cc(F)ccc21
→ i, 64
Cc1cc(C)n(CC(O)CN2c3ccccc3Sc3ccccc32)n1 (configuration not stated)
→ i, -0.87
O=C(c1ccco1)N1CCN(c2ccc(S(=O)(=O)N3CCCC3)cc2)CC1
→ i, 0.86
CC(C)(CC(=O)O)CC(=O)N1CCCN(c2nc3ccc(Cl)cc3s2)CC1
→ i, -0.35
Cc1cc(S(=O)(=O)N2CCCCC2CCNC(=O)C(=O)NCC2CCCO2)ccc1F (configuration not stated)
→ i, 1.6
CCn1nnc(NC(=O)c2cccnc2Cl)n1
→ i, 0.48
Cc1cccc(C(=O)NC2CCCc3ccccc32)c1 (configuration not stated)
→ i, 2.2
CCn1cc(CN2CCN(CCC(C)C)C(CCO)C2)c2ccccc21 (configuration not stated)
→ i, -0.02
CC(NC(=O)CN(c1cccc(C(F)(F)F)c1)S(C)(=O)=O)c1ccccc1 (configuration not stated)
→ i, 3.6
CCN1CCCC(OC(=O)c2cc(-c3ccccc3Cl)nc3ccccc23)C1 (configuration not stated)
→ i, -0.51
O=C(Nc1nccs1)c1cc2sccc2n1Cc1ccc(Cl)cc1
→ i, -0.19
Cc1ccc(Sc2ncccc2COC(=O)Nc2ccccc2)cc1
→ i, -0.7
Cc1cnccc1CNC(=O)CC1C(=O)NCCN1CC(C)(C)C (configuration not stated)
→ i, -0.89
O=C(c1ccccc1)N1CCN(C(=O)N2CCCCC2)CC1
→ i, -1.9
CCOC(=O)CN1CCC(c2cc(-c3ccc(Cl)cc3)n[nH]2)CC1
→ i, -1.1
Cc1ccccc1Nc1nccc(N(C)C)c1C#N
→ i, -0.96
Cc1ccc2oc(=O)c3cnn(CC(=O)NCCc4ccsc4)c3c2c1
→ i, 0.9
Cc1nc(CCNC(=O)C2CCC(=O)N(CCc3cccc(F)c3)C2)sc1C (configuration not stated)
→ i, 0.08

Continuation.
Every second line gives: KCNQ2 inh, KCNQ2 inh baseline
COC(=O)C1=C(C(=O)c2ccc(C)cc2)C(c2ccccc2)n2nnnc2N1 (configuration not stated)
→ i, -1.1
CCOc1ccc(NC(=S)NC(=O)/C=C/c2ccc(OC)cc2)c([N+](=O)[O-])c1
→ i, -0.57
C/C(CC(=O)Nc1ccccn1)=N\NC(=O)c1ccc2ccccc2c1
→ i, -0.64
Cc1ccc(-c2cc(C(F)F)nc(N3CCOCC3)n2)cc1
→ i, -1.6
O=C(NNC(=O)c1ccccc1Cl)c1cc2cc(OC(F)(F)F)ccc2[nH]1
→ i, -0.22
CCCCNC(=O)/C(C#N)=C/c1cccnc1
→ i, -1.1
O=C(/C=C/c1ccc(Br)cc1)NC(=S)NNC(=O)c1ccco1
→ i, 1.8
COc1cc2cc(Oc3ccc4ccc(=O)oc4c3)c(=O)oc2cc1OC(C)=O
→ i, 0.29
Cc1ccc(C(=O)Nc2cccc(C(F)(F)F)c2)cc1NC(=O)c1ccno1
→ i, -0.23
CCOC(=O)[C@@H]1[C@H]2COc3ccc(Br)cc3[C@H]2N2C(=O)N(c3cccc(Cl)c3)C(=O)[C@]12C
→ i, -1.4
Cc1cc(N=CC2=C(O)CCCC2=O)no1
→ i, 0.02
COc1ccc2c(c1)c1nnc(SC)nc1n2C
→ i, -1.3
CN=c1oc2ccc(Cl)cc2cc1C(N)=O
→ i, 0.99
CCOC(=O)C1(Cc2cccc(OC)c2)CCCN(C(=O)c2ccccc2C)C1 (configuration not stated)
→ i, -1.6
CCOC(=O)N1CCN(CC(=O)Nc2c(C(=O)OC)[nH]c3cccc(Cl)c23)CC1
→ i, -0.59
Cc1ccc(Cn2nc(C)c(NC(=O)CSc3n[nH]c(C)c3[N+](=O)[O-])c2C)cc1
→ i, 0.43
CC(=O)c1cccc(NS(=O)(=O)c2csc(C(N)=O)c2)c1
→ i, -0.24
O=C1c2ccccc2C(Nc2ccccc2)N1Cc1ccc2c(c1)OCO2 (configuration not stated)
→ i, 1.3
CCCNS(=O)(=O)c1ccc(OCC(=O)N2CCN(c3ccccc3)CC2)cc1
→ i, -1.1
CCCCCn1c(=O)[nH]c2cc(C(=O)NCc3ccc4c(c3)OCO4)ccc2c1=O
→ i, 1.8
CCc1ccc2ncc(C(=O)c3ccccc3)c(N3CCOCC3)c2c1
→ -9.8*, -0.29*
CCOCCc1nnc(NC(=O)c2cc(OC)c(OC)cc2[N+](=O)[O-])s1
→ i, -0.33
CN(CC(=O)NC(c1ccccc1)c1ccccc1)Cc1nc2ccccc2c(=O)[nH]1
→ -6.6*, 0.27*
C=C1c2cc(CC)ccc2NC(=O)N1c1ccc(C)cc1
→ i, 0.72
CCc1ccccc1-n1cnc2cc(C(=O)O)ccc21
→ i, -0.03
CCOC(=O)CN(c1ccccn1)S(=O)(=O)c1ccc(OC)cc1
→ i, 0.13
COc1ccc(CN2C(=O)CC(C(=O)NCCc3ccc(S(N)(=O)=O)cc3)SC2=Nc2ccccc2)cc1 (configuration not stated)
→ i, -0.01
COCC1CCN(Cc2cn(Cc3ccccc3)nc2-c2cc3ccccc3o2)CC1
→ i, 1.5
Cc1c(C(=O)NCc2ccc(F)cc2)c(-c2ccccc2)nn1-c1ccccc1
→ i, 1.2
Cc1nn(CCOc2ccccc2Cl)c(C)c1[N+](=O)[O-]
→ i, -1.2
COc1ccc(C)cc1NC(=O)COC(=O)c1ccccc1SCC(=O)N1CCCC1
→ i, 0.01
NC(=S)N=Nc1c(O)n(CCCl)c2ccc(Br)cc12
→ i, 2.2
Cc1ccc(NC(=O)CCNC(=O)c2ccco2)cc1F
→ i, -0.29
CCCn1c(SCC(=O)Nc2sc(C)c(C)c2C(=O)OCC)nc2c1c(=O)n(C)c(=O)n2C
→ i, 0.35
N#CC1=C(N)Oc2cc(O)ccc2C1c1cccs1 (configuration not stated)
→ i, 2.1
Cc1[nH]c2ccccc2c1/C=N/NC(=O)c1cccs1
→ i, -0.49
CCOC(=O)c1c(C)[nH]c(C)c1S(=O)(=O)NCCc1ccc(SC)cc1
→ i, -1
CC(C)CCNC(=O)CSc1nc2ccsc2c(=O)n1NC(=O)c1ccccc1
→ i, -1.6
CCCCCc1c(C)nc(Nc2nc(C)c3cc(OC)ccc3n2)[nH]c1=O
→ i, -0.74
Cc1ccc(P(=O)(O)c2ccc(C)cc2)cc1
→ i, -3.1
NC(=O)NC(=O)c1nccnc1C(=O)O
→ i, 0.48
COc1ccc(-c2c(C)oc3c(CN4CCN(CCO)CC4)c(O)ccc3c2=O)cc1OC
→ i, 1.1
CCN(CC)CCN(C(=O)c1ccc2c(c1)CCCC2)c1nc2cc(OC)c(OC)cc2s1
→ i, -1.2
Cc1ccc(-c2nn(-c3ccccc3)cc2CO)cc1
→ i, -0.26
CCc1nc(Nc2cccc(OC)c2)c2oc3ccccc3c2n1
→ i, 2

7 entries from above, arranged by SMILES length, falling.
Every second line gives: KCNQ2 inh, KCNQ2 inh baseline
COc1ccc(-c2c(C)oc3c(CN4CCN(CCO)CC4)c(O)ccc3c2=O)cc1OC
→ i, 1.1
CCOC(=O)c1c(C)[nH]c(C)c1S(=O)(=O)NCCc1ccc(SC)cc1
→ i, -1
CC(C)CCNC(=O)CSc1nc2ccsc2c(=O)n1NC(=O)c1ccccc1
→ i, -1.6
CCCCCc1c(C)nc(Nc2nc(C)c3cc(OC)ccc3n2)[nH]c1=O
→ i, -0.74
CCc1nc(Nc2cccc(OC)c2)c2oc3ccccc3c2n1
→ i, 2
Cc1ccc(NC(=O)CCNC(=O)c2ccco2)cc1F
→ i, -0.29
Cc1ccc(P(=O)(O)c2ccc(C)cc2)cc1
→ i, -3.1

(more compounds)
Every second line gives: KCNQ2 inh, KCNQ2 inh baseline
CCc1ccc(S(=O)(=O)N2CC(=O)Nc3ccccc32)cc1
→ i, 1.1
CN(Cc1ccc(F)cc1)C(=O)c1cccc(NS(=O)(=O)c2ccccc2)c1
→ i, 0.46
COc1ccc([N+](=O)[O-])cc1NC(=O)c1ccc(CN(c2ccccc2)S(C)(=O)=O)cc1
→ i, -0.77
COc1ccc(OC)c(C2CC(=O)c3c([nH]c(C(=O)OC(C)C)c3C)C2)c1 (configuration not stated)
→ i, -0.34
CCSc1oc(-c2ccccc2)nc1S(=O)(=O)c1ccccc1
→ i, -0.81
COc1ccc(OCCSCc2nnc(NC(=O)Nc3ccc(Cl)cc3)s2)cc1
→ i, 0.05
CC1CCN(CC(=O)NCc2ccco2)CC1
→ i, 0.24
Fc1ccc(Cn2nnnc2C(c2ccc(Cl)cc2)N2CCSCC2)cc1 (configuration not stated)
→ i, 3.3
CCOc1cc2[nH]c(=O)n(Cc3cccc(OC)c3)c(=O)c2cc1OCC
→ i, -0.04
CCCOC(=O)C1=C(C)NC2=C(C(=O)C(C(=O)OC)C(C)C2)C1c1ccc(N(CC)CC)cc1 (configuration not stated)
→ i, -0.09
Cc1ccc(C(N)=Nc2ccccc2)cc1
→ i, -0.18
O=C(CCn1nc(-c2ccccc2)ccc1=O)N1CCN(c2ccccc2)CC1
→ i, -3.1
CCn1c(C2CC(=O)N(c3cc(C)cc(C)c3)C2)nc2ccccc21 (configuration not stated)
→ i, 0.16
O=C(CN1C(=O)c2ccccc2C1=O)NCC(=O)OCC(=O)c1ccc(Cl)cc1
→ i, 1.4
O=C(/C=C/c1ccccc1[N+](=O)[O-])NC1CCCC1
→ i, 1.1
Cc1ccc(N(C=NC#N)CC(=O)N2CCN(c3ccccc3)CC2)cc1
→ i, 0.12
CCN(Cc1ccccc1)C(=O)CSc1nc(C)cc(=O)[nH]1
→ i, 0.58
O=C(NC1CCCc2ccccc21)c1cc(S(=O)(=O)N2CCOCC2)ccc1F (configuration not stated)
→ i, 1
